Screens as filed in PubChem.
UUG fidelity: alters start codon recognition fidelity in yeast | S. cerevisiae UUG-firefly luciferase reporter, luminescence/redox ratio | activity score, % at 18.7 µM | 350,000 compounds, 0.13% hits;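 active means replicate mean at a twofold rise or more, about +100% in these data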;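 further: firefly luciferase made from a UUG start codon reports start codon fidelity; reporter light over untreated wells divided by growth signal over untreated wells; some hits fall short of that in this replicate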
CSC inhib: blocks cancer stem cells. cancer stem cell-like cells viability, luminescence. inhibition, % at 7.5 µM. 300,000 compounds, 1.1% hits. AID 2717;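 active means mean at 75% or more and at least half the replicates too; inconclusive means mean and replicates disagree; tested in HMLE shEcad cells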;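 further: 0% = median of negative and 100% = median of positive control wells; the first replicate is given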
MT1-MMP act inh: blocks activation of human MT1-MMP; P50281; HT1080 RFP-PRO-GFP cells, GFP/RFP ratio fluorescence, overnight; percent of plate control window, DMSO zero; GFP/RFP ratio change, % at 20 µM; 360,000 compounds, 0.061% hits;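 active means GFP/RFP ratio change of at least 30% with cell ATP level not reduced by more than half and red fluorescence within 50% of control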; further: strong numbers were not always called active
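Assay system – RFP-PRO-GFP reporter HT1080 cells · Compound dosing – single dose of 20 µM compound, 1% DMSO final · Incubation – overnight compound exposure at 37 °C · Measure – GFP/RFP fluorescence ratio · Benchmarks – DMSO wells and RFP-L50D-GFP cells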
Env fusion inh: inhibitors of HIV Env-mediated cell fusion. HeLa-JRFL Env/CEM21 cell fusion, luciferase. inhibition, % at 12.3 µM. 360,000 compounds, 1.1% hits. AID 651610;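 active means mean replicate inhibition score of at least 50 and every replicate individually at or above 50; inconclusive means only one of the two criteria met; inactive means mean below 50 and not all replicates reaching 50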;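 further: 0% = plate neutral controls and 100% = maraviroc near 300 nM; one replicate is shown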
Rce1 inhib: yeast Ras-converting enzyme inhibition; Q03530; yeast membranes, quenched prenylated peptide cleavage fluorescence; calls only; 290,000 compounds, 0.27% hits; AID 2563;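 active means fall in fluorescence gain of 50% or more versus controls, with final raw signal at or below 3038400; inconclusive means same 50% fall but final raw signal above 3038400; inactive means fall in fluorescence gain under 50%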;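 further: plate controls were neutral control wells for no effect and wells lacking membranes for full effect; tested at 10 µM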
Target sequence (Q03530 whole entry, looked up): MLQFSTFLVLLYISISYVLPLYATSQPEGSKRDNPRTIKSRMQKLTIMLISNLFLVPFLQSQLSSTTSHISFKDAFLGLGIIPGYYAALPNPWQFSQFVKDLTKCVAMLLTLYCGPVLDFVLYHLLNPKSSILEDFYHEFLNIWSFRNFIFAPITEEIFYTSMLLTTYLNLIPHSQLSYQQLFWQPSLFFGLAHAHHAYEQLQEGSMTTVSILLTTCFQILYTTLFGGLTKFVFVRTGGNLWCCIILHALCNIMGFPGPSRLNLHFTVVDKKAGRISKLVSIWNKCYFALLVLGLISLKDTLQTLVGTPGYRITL
eIF4H FP inh: inhibitors of RNA binding by human eIF4H; Q15056; eIF4H fluorescence polarization binding assay; inhibition, % at 35 µM; 290,000 compounds, 0.94% hits;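 active means 50% or more with normal probe brightness, or confirmed in later tests; inconclusive means above 50% with abnormal brightness, or retests that disagree; inactive means below 50% or failed in later tests; about a fifth of its hits are not listed in these tables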;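 further: calls also rest on retests at 20 µM and on dose response follow-up; 0% = protein and probe with vehicle and 100% = probe without protein; strong numbers were not always called active; many hits fall short of the cut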
PABP FP inh: blocks human PABP binding to poly(A) RNA; P11940; AID 2014; inhibition, % at 35 µM; fluorescence polarization; 290,000 compounds, 1% hits;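 active means 50% or more with normal probe brightness, or confirmed in later tests; inconclusive means above 50% with abnormal brightness, or retests that disagree; inactive means below 50% or failed in later tests; about a fifth of its hits are not listed in these tables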;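 further: calls also rest on retests at 20 µM and on dose response follow-up; controls were probe without protein and protein plus probe with vehicle; some compounds called inactive have numbers as strong as hits; many hits fall short of the cut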
Target sequence (P11940 whole entry, looked up): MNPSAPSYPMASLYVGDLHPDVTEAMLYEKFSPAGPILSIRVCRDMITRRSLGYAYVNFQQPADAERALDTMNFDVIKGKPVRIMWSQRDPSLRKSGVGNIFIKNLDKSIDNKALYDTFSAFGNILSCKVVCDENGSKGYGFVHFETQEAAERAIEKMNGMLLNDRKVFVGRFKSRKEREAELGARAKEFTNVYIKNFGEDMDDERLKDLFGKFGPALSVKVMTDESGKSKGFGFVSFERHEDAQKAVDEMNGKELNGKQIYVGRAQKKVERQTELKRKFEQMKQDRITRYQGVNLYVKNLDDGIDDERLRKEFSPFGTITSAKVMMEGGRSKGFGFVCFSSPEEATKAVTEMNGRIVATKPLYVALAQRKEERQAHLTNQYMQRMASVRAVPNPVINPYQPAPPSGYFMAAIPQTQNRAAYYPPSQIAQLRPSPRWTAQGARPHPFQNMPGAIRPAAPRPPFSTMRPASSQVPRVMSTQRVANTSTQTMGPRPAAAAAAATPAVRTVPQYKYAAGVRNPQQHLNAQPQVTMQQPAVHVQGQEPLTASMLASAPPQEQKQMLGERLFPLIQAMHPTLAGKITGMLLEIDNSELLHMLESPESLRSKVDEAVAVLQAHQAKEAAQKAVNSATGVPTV
eIF4H FP inh retest: recorded beside eIF4H FP inh, whose call it bears; inhibition, %; compound at 20 µM; confirmation average;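 mean of two retest wells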
PABP FP inh retest: recorded beside PABP FP inh, whose call it bears; inhibition, %; compound at 20 µM; confirmation repeats;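 mean of two retest wells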
MT1-MMP act inh RFP: second read-out of MT1-MMP act inh, no call of its own (marks repeat the call); RFP signal change, %; measured here: RFP expression control read;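 0 = vehicle wells; hits needed this value within 50% of zero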
* hit, by the source's call; i = inactive; ? = inconclusive; . = not tested or not shown; & = joins results of further samples; ! = a repeat was not active.

SMILES	UUG fidelity	CSC inhib	MT1-MMP act inh	MT1-MMP act inh RFP	Env fusion inh	Rce1 inhib	eIF4H FP inh	PABP FP inh	others
Cc1noc(C)c1CSCC(=O)Nc1cc(Cl)ccc1N1CCOCC1	-0.6	7.4	-3.7	-0.4	17.0	i	-8.4	-4.6
O=C(Nc1nncs1)c1cc(-c2ccco2)nc2ccccc12	6.4	.	-1.9	4.5	5.0	.	.	.
O=C(CSc1ccccn1)Nc1cccc2ccccc12	-9.1	-10.0	8.3	4.9	2.1	i	1.8*	59.0*	eIF4H FP inh retest=97.6*;PABP FP inh retest=95.9*
CCC(=O)N1c2ccc(S(=O)(=O)CCC(=O)N3CCN(c4ccccc4)CC3)cc2CC1C (stereo not given)	-32.6	-0.5	2.6	1.8	.	i	-6.1	5.1
C=CCCC(=O)Nc1nc(C)c(-c2csc(Nc3cc(OC)ccc3OC)n2)s1	-0.1	?	-3.3	-5.2	-177.9	i	-3.0	9.1
CCC(=O)N/C(=N/c1nc(C)cc(C)n1)Nc1ccc(C)cc1	-14.6	0.0	-3.0	-2.6	7.9	i	-2.4	18.8
CCc1cccc2c(C(=O)COC(=O)c3cnc(C)cn3)c[nH]c12	-4.2	.	-2.1	0.7	6.1	.	.	.
O=C(C(=O)N1CCN(c2cccc(Cl)c2)CC1)c1cn(CC(=O)N2CCOCC2)c2ccccc12	12.1	-9.4	3.4	-2.7	8.9	i	-0.6	1.9
COc1cccc(NC(=O)Nc2nc(SC)ns2)c1	-11.8	17.2	1.8	-10.8	-36.0	i	-2.8	-5.4
Oc1c(Cl)cc(Cl)cc1C=Nc1ccccc1N1CCCC1	.	6.9	.	.	.	i	25.0	-0.7
COc1cc2c(cc1OC)C(C(=O)O)C(c1ccc(C)o1)N(C)C2=O (stereo not given)	4.1	-12.5	-4.8	-6.6	-17.0	i	3.6	4.5
CCCc1nc(-c2ccccc2O)n(-c2ccccc2)n1	-31.1	7.6	1.2	-2.5	7.0	i	2.6	-8.3
Cc1nn(-c2ccccc2)c(Cl)c1/C=N/NC(=O)c1ccccc1F	-2.0	4.4	-1.0	-1.9	-58.7	i	-2.2	-11.1
CCOc1ccc(NC(=O)Cc2ccc(S(=O)(=O)N3CCCCC3)cc2)cc1OCC	-3.2	-8.6	-4.2	-8.3	6.0	.	.	.
O=C(COc1ccccc1)OC(C(=O)c1ccccc1)c1ccccc1 (stereo not given)	-14.3	-6.5	4.4	6.1	-11.5	i	6.6	-17.6
COc1ccc(/C=N/N=C(\N)c2nonc2N)cc1OC	.	2.3	5.9	3.8	-40.7	i	-3.3	3.7
S=C(NCc1ccco1)N/N=C/c1ccncc1	.	0.6	-0.1	3.7	4.2	i	2.1	5.1
O=C(Nc1ccccc1)Nc1cccc2ccccc12	-22.3	3.1	4.1	-0.7	-2.3	.	-12.5	-3.1
Cc1ccc2[nH]cc(CCCN3C(=O)c4ccccc4C3=O)c2c1	.	-3.2	0.0	-3.2	-14.0	i	-5.3	-1.8
CCOC(=O)C1CCN(C(=O)C2CCCN(S(=O)(=O)c3ccc(OC)c(Cl)c3)C2)CC1 (stereo not given)	15.7	-2.1	1.0	-15.5	6.8	i	-6.9	-2.2
c1ccc(-c2n[nH]c3ccccc23)cc1	2.0	-6.3	-5.9	-2.8	.	i	1.8	0.7
COc1ccc(N2CCN(S(=O)(=O)CCNS(=O)(=O)c3ccccc3)CC2)cc1	-9.7	-1.6	-1.7	-1.5	-4.0	i	.	.
CCOc1nc2ccccc2cc1C=O	.	12.5	7.1	5.5	-41.2	.	-5.0	9.5
c1cnc(N2CCN(Cc3ccc4c(c3)OCO4)CC2)nc1	-13.4&-10.9	-6.3	2.6&2.1	2.3&-2.0	7.2&25.3	i	50.9*!	62.0*!
C/C(CCc1ccccc1)=N\NC(=O)CCc1ccccc1	.	.	3.2	8.7	-4.8	i	-5.2	-8.5
O=C(N/N=C/c1ccoc1)c1ccccc1Br	-11.8	-2.6	-0.6	1.0	6.7	i	16.7	0.5
CC(=O)c1c(C)[nH]c(C(=O)COC(=O)c2cccc(S(=O)(=O)N(C)c3ccccc3)c2)c1C	.	-3.9	-15.3	-28.6	40.7	i	-1.1	-7.1
Cc1ccccc1Nc1n[nH]c(=S)s1	-7.3	.	-1.2	-3.6	-23.4	.	.	.
Cc1ccc(S(=O)(=O)CC(=O)Nc2ncc([N+](=O)[O-])s2)cc1	-15.9	5.1	2.0	1.4	3.1	i	6.5	4.8
COc1ccc(NC(=S)N(CCN2CCCCC2)Cc2ccco2)cc1	-12.7	-0.4	-1.6	-1.6	16.5	i	6.3	-6.6
CC(=O)NCCOc1ccc(C(=O)O)cc1	-20.0	-12.3	0.5	4.7	.	i	10.2	9.4
COc1cccc(C(c2c(NC(=O)c3ccco3)sc(C)c2C)N2CCOCC2)c1 (stereo not given)	-26.3	.	0.0	-1.7	13.8	.	.	.
O=C(O)C1C2CCC(C2)C1C(=O)Nc1cccc([N+](=O)[O-])c1 (stereo not given)	4.3	-8.5	0.5	0.0	-10.9	i	-10.2	-1.1
Cc1c(Cl)cccc1NCC(=O)NN=C1CCCC1	-11.5	1.6	-0.6	-0.6	-0.1	i	-9.4	-3.4
O=C(O)c1cccc(NC(=O)c2cccc(S(=O)(=O)N3CCCCC3)c2)c1	5.0	2.7	4.1	3.7	.	i	5.7	1.6
Cc1cc(C(F)(F)F)n2nc(-c3sccc3-n3cccc3)cc2n1	-16.4	1.1	2.3	3.5	-194.8	i	3.1	5.4
O=C(Nc1nc(-c2ccccc2)cs1)c1ccc(=O)[nH]c1	.	-4.2	0.9	-7.1	9.5	i	4.8	-4.0
CCN(CC)S(=O)(=O)c1ccc(C(=O)Nc2cc(C)cc(C)c2)cc1	321.8*	-0.8	1.0	-4.8	18.9	i	-6.3	1.9
Cc1cc(N2CCN(c3ccccn3)CC2)n2cc(-c3ccccc3)nc2n1	.	-7.1	8.7	0.3	-75.5	i	-7.3	0.6
Cc1cc(C)c(S(=O)(=O)c2cc(F)ccc2C)c(=O)[nH]1	-13.8	-7.3	-1.0	1.8	15.9	i	-3.6	-4.0
CC(=O)C1=C(C)NC(=O)CC1c1ccc(Br)cc1 (stereo not given)	.	-0.7	-2.5	-3.3	-50.4	i	0.1	-7.5
CCNCc1cc(Br)c(OCC(=O)Nc2ccccc2)c(OC)c1	-20.4	1.9	5.6	-0.3	-35.5	i	-0.5	-0.9
COCCCn1c(=O)/c(=C\c2ccccc2OC(F)F)s/c1=C(/C#N)C(N)=O	-8.1	.	-13.7	2.7	32.0	i	?	5.0
OCC[C@@H]1C[C@H](O)[C@@H](O)[C@@]2(OCCc3ccccc32)O1	-17.1	1.5	-4.1	6.1	.	i	-8.9	-2.1
O=C(COC(=O)c1cccc2c1C(=O)c1ccccc1C2=O)NC1CCCCC1	.	17.5	1.7	-3.6	13.4	i	0.6	0.3
OCCOCCN1CCN(C2=Nc3ccccc3Sc3ccccc32)CC1	6.0&-19.6	4.6&-6.6	0.0&-1.1	-3.7&-4.6	-3.9	i	-7.4&1.6	12.8&1.6
COc1ccc(OC)c(NC(=O)CCCSc2ccccc2)c1	-5.2	-6.1	1.6	-0.1	3.7	i	-12.0	0.1
COc1cc(SC)ccc1C(=O)Nc1ccc2c(c1)OCCO2	-40.8	-3.7	3.6	-1.9	.	i	-3.5	-3.6
COc1ccc(CCN(C)Cc2c(O)ccc3ccccc23)cc1OC	8.8	-6.9	-1.2	0.9	-0.3	i	4.4	14.9
Cc1cccc(-n2cc(-c3ccccc3)c3c(=O)[nH]cnc32)c1	-3.4	-2.9	2.8	-2.3	-30.9	i	3.3	7.5
N#C/C(=C/c1ccc(N2CCCCC2)o1)C(=O)NCCc1c[nH]c2ccccc12	.	47.4	-129.4	-1.5	-17.7	i	-8.7	-8.0
OCCN1CCN(CCOc2cccc(Cl)c2)CC1	-17.2	20.8	2.8	-0.2	-5.6	i	-5.9	11.9
COc1ccc(NC(=O)c2ccc3nc[nH]c3c2)c(OC)c1	.	.	0.4	-0.9	7.5	i	24.3	10.8
Cc1cc(C)nc(SCC(=O)Nn2cnnc2)n1	-12.5	-14.7	3.2	3.3	.	i	-13.6	-2.0
CN1CCN(NC(=O)c2cc(Br)ccc2Cl)CC1	3.0	-2.8	0.4	3.7	8.8	i	-7.7	15.3
O=C(CN1C(=O)/C(=C/c2ccccc2)SC1=S)Nc1cccnc1	.	-33.8	-1.1	2.7	-0.2	i	-12.4	-7.8
COc1ccc2c(c1)SC(C)CC2=O (stereo not given)	.	-3.4	1.4	5.1	.	i	2.8	9.6
O=C(CCc1nnc2ccc(N3CCCC3)nn12)Nc1ccc(F)c(F)c1	-21.5	15.2	-4.1	-2.9	7.4	i	-12.5	-6.1
COc1ccc(/C=C/C(=O)c2cccc(-n3cnnn3)c2)cc1O	-13.5	6.0	-1.0	0.3	-1.0	.	9.4	10.7
Cc1cc2cc(CNC(=S)NC3CCCCC3)ccc2n1C	-15.6	-7.9	23.9	20.2	-3.6	i	1.9	16.8

(cont.)
SMILES	UUG fidelity	CSC inhib	MT1-MMP act inh	MT1-MMP act inh RFP	Env fusion inh	Rce1 inhib	eIF4H FP inh	PABP FP inh	others
O=[N+]([O-])c1ccccc1/C=C/C=N/n1c(-c2cc(-c3ccccc3)n[nH]2)n[nH]c1=S	.	-1.9	5.4	-1.2	34.1	i	41.7	-6.4
CCCc1cc(=O)[nH]c(SCc2cc(Cl)ccc2OC(F)F)n1	.	19.8	2.2	-2.0	2.5	i	5.7	0.5
O=C(NNC(=S)NC(=O)c1cccc([N+](=O)[O-])c1)c1ccc(Br)cc1	-27.4	20.0	4.2	4.0	14.3	i	2.7	-0.3
NS(=O)(=O)c1ccc(NC(=O)/C=C/c2ccc3c(c2)OCO3)cc1	.	-8.1	6.0	2.2	7.4	i	1.8	0.9
O=C(OC1CCOC1=O)c1cc(-c2ccc(Br)cc2)nc2ccccc12 (stereo not given)	-1.2	-0.1	-0.8	-2.1	-14.7	i	10.3	-6.8
O=C(CSc1nncs1)Nc1nnc(-c2ccccc2)o1	-4.6	24.0	0.6	1.4	6.9	i	3.3	-3.9
COc1cccc(/C=C/C(=O)Nc2ccc(C(=O)Nc3cccc(S(N)(=O)=O)c3)cc2)c1OC	-5.0	4.5	23.3	-6.0	12.1	i	2.0	5.2
CCOc1ccccc1NC(=O)N1CCCC1C(=O)NCc1ccco1 (stereo not given)	-8.4	.	-0.5	-3.6	-10.3	i	-10.7	8.0
COc1ccc(C2C(C(=O)NCc3cccnc3)c3ccccc3C(=O)N2C)cc1OC (stereo not given)	7.7	9.3	4.7	-1.8	-71.0	.	1.3	-4.5
CC(CN1CCOCC1)OC(=O)C(c1ccccc1)c1ccccc1 (stereo not given)	-10.2	1.8	0.1	2.5	.	i	1.7	-5.1
Nc1nc(SCc2ccc3c(c2)OCCO3)n[nH]1	-25.1	-19.6	0.8	0.0	.	i	-6.0	-6.8

Reprinted at random: two entries already listed.
SMILES	UUG fidelity	CSC inhib	MT1-MMP act inh	MT1-MMP act inh RFP	Env fusion inh	Rce1 inhib	eIF4H FP inh	PABP FP inh	others
COc1cccc(/C=C/C(=O)Nc2ccc(C(=O)Nc3cccc(S(N)(=O)=O)c3)cc2)c1OC	-5.0	4.5	23.3	-6.0	12.1	i	2.0	5.2
NS(=O)(=O)c1ccc(NC(=O)/C=C/c2ccc3c(c2)OCO3)cc1	.	-8.1	6.0	2.2	7.4	i	1.8	0.9

The list is partial (hit frequency here may not be typical).
